Bioassay records from PubChem.
PrP UTR inh = inhibition of PrP 5' UTR reporter expression | cell-based PrP 5' UTR mRNA reporter, plate reader | inhibition, % (concentration not given with the values) | hit rate 0.35% among 340,000;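 active = every replicate at 50% or more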;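 note: 0 = median of the neutral control wells; tested in H4 reporter cells; numbers are from one replicate; inactives centre near -14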
BJeLR viability = kills HRASV12-expressing BJeLR cells; hit rate 0.17% among 300,000; inhibition, % (test concentration not listed); BJeLR (HRASV12) viability, CellTiter-Glo ATP luminescence, 48 h; reference of the scale not given here;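 active = replicate mean above 50%; inconclusive = above 50% but judged a plate artefact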;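 note: 50 nL library stock added to about 25 µL; numbers are from one replicate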
Mtb hypoxia inh = Mtb hypoxia fluorescent reporter inhibition | hit rate 0.1% among 300,000 | M. tuberculosis hypoxia-regulated fluorescent reporter, fluorescence | fluorescence inhibition, % (no concentration beside the values);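 active = 35 to 45% if threefold the growth effect, above 45% if 1.5-fold the growth effect; inactive = the rest, general growth blockers included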;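 note: wells of about 50 µL received 100 nL stock; 0% = vehicle wells and 100% = reference inhibitor wells; whole bacteria with a GFP reporter of the hypoxia response; strong numbers were not always called active; many hits fall short of the cut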
Sa RN4220 lethal = S. aureus RN4220 growth inhibition | hit rate 0.33% among 330,000 | inhibition, % (no concentration beside the values) | OD600, 16 h;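 active = z-score of -3 or lower and OD600 up to 0.18 on both plates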;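 note: plate controls were untreated cells for no effect and reference antibiotic for full effect; stock transfer was 100 nL into about 80 µL; one replicate is shown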
Sa ugtP lethal = growth inhibition of S. aureus ugtP deletion strain. hit rate 0.54% among 330,000. AID 1259309. growth inhibition, % (concentration not given with the values). S. aureus RN4220 ugtP deletion, OD600 growth, 16 h; some inactives read as strong as hits;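 active = z-score under -3 and OD600 up to 0.15 on both plates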;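 note: plate controls were untreated wells for no effect and antibiotic for full effect; wells of about 80 µL received 100 nL stock; the first replicate is given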
Bead autofluor = compound fluorescence in toxin protease inhibitor counterscreen; fluorescence intensity (concentration not given with the values); compound autofluorescence counterscreen, microsphere flow cytometry; stronger effect = higher value; AID 624483; hit rate 3.1% among 360,000;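 active = at least 3 SD above the mean of all compounds, about 16000 in these data; inconclusive = too few beads counted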;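 note: 100 nL of 1 mM stock went into each well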
Mtb hypoxia inh growth = also measured in Mtb hypoxia inh; calls as there; growth inhibition, %; measured here: M. tuberculosis growth (absorbance);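 0% = vehicle and 100% = reference antibiotic; read after six days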
The depositor's hits bear a star; ? = inconclusive; . = no result given.

SMILES	PrP UTR inh	BJeLR viability	Mtb hypoxia inh	Mtb hypoxia inh growth	Sa RN4220 lethal	Sa ugtP lethal	Bead autofluor
Cc1ccc2c(c1)N(CCCC(=O)Nc1cccc(C(F)(F)F)c1)C(=O)CO2	-24	-1	.	.	.	.	7223
Cc1cccc(NC(=O)CNC(=O)c2ccc3c(c2)OCO3)n1	-21	5	3	-2	-0.8	2	?
COc1cc(N(C)C)c([N+](=O)[O-])cc1C(=O)NC(C)CNc1ccc([N+](=O)[O-])cc1Cl (configuration not stated)	-54	3	11	0	8.9	3	2463
Cc1ccc2nc(C)cc(NN=Cc3ccccc3O)c2c1	.	.	-1	9	0.5	-8	.
CNC(=O)c1ccccc1NC(=O)c1ccc(C)c(S(=O)(=O)N2CCCCC2)c1	-16	7	1	15	-0.5	-2	10173
COc1cc(NC(=O)CSc2nc(=O)n(CCCN3CCOCC3)c3c2CCC3)cc(OC)c1	-20	0	10	-1	1.7	3	.
CCN(CC)c1ccc(NC(=O)Cn2nnc(-c3cccc(OC)c3OC)n2)c(C)c1	-20	3	4	6	1.1	-2	20991*
CC1CC(NC(=O)Cc2ccc(Br)cc2)CC(C)(C)C1 (configuration not stated)	4	-8	12	9	0.3	-3	3410
Cc1cccc(C)c1NC(=O)CN1CCCC1	-18	.	-2	-4	3.6	-1	3795
C/C(CC(=O)Nc1cccc(F)c1)=N\NC(=O)C(=O)NC1CCCCC1	-14	-6	.	.	.	.	2490
CCOCCCNC(=S)N1CCCN(c2nc3cc(C)c(C)cc3cc2C#N)CC1	-15	2	0	-4	3.6	-3	5320
COc1ccc(N2C(=O)C(CC(=O)Nc3ccccc3)N(Cc3ccccn3)C2=S)cc1 (configuration not stated)	-7	-3	6	-1	0.6	1	4250
COC(=O)C1=C(c2ccc(OC)c(OC)c2)CC2CCC1N2C(=O)NCCO (configuration not stated)	.	.	9	-2	5.3	0	.
Cc1nc2scc(-c3ccc(Cl)cc3)c2c(=O)o1	-35	-13	17	8	4.0	-11	9848
CCN(Cc1nc2ccccc2c(=O)[nH]1)Cc1cc(=O)oc2cc(OC)ccc12	-24	.	.	.	0.7	-2	4793
CC1CN(C(C)CO)C(=O)c2cc(NC(=O)Cn3cnnn3)ccc2OC1CN(C)S(=O)(=O)c1cn(C)cn1 (configuration not stated)	.	.	-2	-8	7.9	2	.
C#CCOCCOCCOCCNc1nc(N2CCN(C(=O)CCCCCCCCCCNC(=O)[C@H](CCCCN)n3cc(CCCC(=O)O)nn3)CC2)nc(N2CCN(C(=O)CCCCCCCCCCNC(=O)[C@H](CCCN=C(N)N)n3cc(C[C@@H](C)CC)nn3)CC2)n1	-5	2	.	.	.	.	4484
O=[N+]([O-])c1ccc(C2[C@H]3C(c4ccccc4)=NC4(CCCC4)N23)cc1 (some centres not stated)	-8	-4	8	9	8.0	18	2058
Cn1c(C(=O)NCCN2CCN(Cc3ccccc3)CC2)cc2c(=O)n(C)c3ccccc3c21	-13	-3	.	.	2.3	6	5897
O=C(COC(=O)C1CCN(S(=O)(=O)c2ccc3c(c2)OCCO3)CC1)NC1CCCCC1	-22	2	4	1	0.1	1	5191
CC(C)CNC1=CC(=O)CC(c2ccco2)C1 (configuration not stated)	-18	-14	2	-2	-3.2	-5	3086
CCc1noc(C)c1C(=O)Nc1cc(S(=O)(=O)N2CCOCC2)ccc1OCC(F)(F)F	-21	-1	6	10	6.3	-3	4320
COCc1nnc(NC(=O)c2cc(C(=O)OC)cc([N+](=O)[O-])c2)s1	-17	-6	4	4	0.5	0	2148
CC(Cn1cncn1)NC(=O)c1cc(COc2cccc(C(F)(F)F)c2)on1 (configuration not stated)	4	-1	5	11	2.7	4	5996
O=c1oc2c(CN3CCOCC3)c(O)ccc2c2c1CCC2	-22	.	-1	4	-1.0	-1	20943*
O=C(CN1CCN(Cc2ccc(F)cc2Cl)C1=O)NCCCN1CCOCC1	-22	-1	7	8	1.0	10	5309
Cc1ccc(NC(=S)NC(NC(=O)N(C)C)C(Cl)(Cl)Cl)cc1 (configuration not stated)	-28	-1	-2	1	2.8	12	2592
Cc1ccc(NC(=O)C2C3C=CC4(O3)C2C(=O)N(CCCN2CCCCC2)C4C(=O)NC2CCCCC2)cc1Cl (configuration not stated)	-4	2	0	-18	1.3	3	4222
O=C(N/N=C/c1cc(Cl)c(O)c(Cl)c1)c1cc2c(ccc3ccccc32)o1	-21	-5	.	.	.	.	6238
CC1=C(C(=O)Nc2ccccc2C)C(c2cccnc2)n2nc(CCCO)nc2N1 (configuration not stated)	-8	-5	.	.	1.5	2	4193

Part of the list above in order of number of heavy atoms, falling:
SMILES	PrP UTR inh	BJeLR viability	Mtb hypoxia inh	Mtb hypoxia inh growth	Sa RN4220 lethal	Sa ugtP lethal	Bead autofluor
C#CCOCCOCCOCCNc1nc(N2CCN(C(=O)CCCCCCCCCCNC(=O)[C@H](CCCCN)n3cc(CCCC(=O)O)nn3)CC2)nc(N2CCN(C(=O)CCCCCCCCCCNC(=O)[C@H](CCCN=C(N)N)n3cc(C[C@@H](C)CC)nn3)CC2)n1	-5	2	.	.	.	.	4484
Cn1c(C(=O)NCCN2CCN(Cc3ccccc3)CC2)cc2c(=O)n(C)c3ccccc3c21	-13	-3	.	.	2.3	6	5897
CC(Cn1cncn1)NC(=O)c1cc(COc2cccc(C(F)(F)F)c2)on1 (configuration not stated)	4	-1	5	11	2.7	4	5996

(listing goes on)
SMILES	PrP UTR inh	BJeLR viability	Mtb hypoxia inh	Mtb hypoxia inh growth	Sa RN4220 lethal	Sa ugtP lethal	Bead autofluor
O=S(=O)(Nc1ncccn1)c1ccc(NC(=S)N2CCN(Cc3ccc(F)cc3Cl)CC2)cc1	-11	4	9	4	6.4	-2	5396
CC(C)C(C)NC(=O)COC(=O)C1CCN(S(=O)(=O)c2ccc3c(c2)OCCO3)CC1 (configuration not stated)	-18	-4	-8	-3	2.1	11	5050
CCn1c(=O)n(CC)c2cc(N3CCCC3)c(NC(=O)c3cc(Cl)ccc3OC)cc21	13	0	-9	1	-3.7	-22	5251
COC(=O)C(NC(=O)CCC(=O)N[C@@H](C(=O)OC)c1ccccc1)c1ccccc1 (some centres not stated)	-15	0	.	.	.	.	4485
COCCn1c(SC(C(=O)Nc2cc(C)ccc2OC)c2ccccc2)nnc1-c1ccc(Cl)cc1 (configuration not stated)	-18	0	3	9	-0.7	2	2080
COc1cccc(C2CC(C(F)(F)F)n3ncc(C(=O)Nc4c(C)n(C)n(-c5ccccc5)c4=O)c3N2)c1 (configuration not stated)	-1	-3	.	.	-3.7	8	3496
COC(=O)c1cccc(NC(=O)CCSc2ccc(Cl)cc2)c1C	-10	11	-3	4	0.5	-15	2206
CCOc1ccc(C(=O)Nc2cccc(-c3ccc4nncn4n3)c2)cc1	-18	17	11	-4	1.8	11	3740
Cc1ccc(C(=O)Nc2nccs2)s1	-49	-4	3	-1	-1.1	-2	2950
Cc1cc(N/N=C/c2ccccc2F)c2ccccc2n1	-6	-1	.	.	.	.	3928
C#CC[N+](CC)(CC)CC#Cc1ccccc1	.	-3	19	-2	2.8	13	.
CCCCN(C)CCNC(=O)c1ccc2c(c1)NC(=O)C(N1CCCCC1)S2 (configuration not stated)	-5	0	4	0	-15	3	2874
COc1ccc(NC(=O)C2CCCO2)c(OC)c1 (configuration not stated)	-48	-5	-3	-1	1.8	1	4194
CCCCCCCNC(=O)C1CC(=O)N(C)C(=Nc2ccc(OC)cc2)S1 (configuration not stated)	-11	-2	-4	-9	-1.8	-2	2437
COc1ccc(CCNC(=O)CN2C(=O)C3(OCCCO3)c3ccccc32)cc1OC	-6	4	-2	1	2.5	-1	11728

Complete entries, quoted from the list. Order of screens: PrP UTR inh	BJeLR viability	Mtb hypoxia inh	Mtb hypoxia inh growth	Sa RN4220 lethal	Sa ugtP lethal	Bead autofluor
C#CC[N+](CC)(CC)CC#Cc1ccccc1 is listed with .	-3	19	-2	2.8	13	.
CC(C)C(C)NC(=O)COC(=O)C1CCN(S(=O)(=O)c2ccc3c(c2)OCCO3)CC1 (configuration not stated) is listed with -18	-4	-8	-3	2.1	11	5050
Cc1ccc(C(=O)Nc2nccs2)s1 is listed with -49	-4	3	-1	-1.1	-2	2950

Next compounds:
SMILES	PrP UTR inh	BJeLR viability	Mtb hypoxia inh	Mtb hypoxia inh growth	Sa RN4220 lethal	Sa ugtP lethal	Bead autofluor
COc1cc2c(cc1OC)CN(Cc1cc(OC)c(O)c(OC)c1)CC2	-24	-12	12	3	10	7	3997
COC(=O)c1cc2c(N)c(C(=O)c3ccccc3)sc2nc1C(OC)OC	-35	5	-10	-12	0.1	32	4239
O=C(CSc1nnc(-c2ccc(Br)cc2)o1)N1CCN(C(=O)c2ccco2)CC1	-29	1	12	9	20	-9	11005
Cc1cc(N2CCN(C(c3ccccc3)c3ccc(Cl)cc3)CC2)n2ncnc2n1 (configuration not stated)	-10	8	-1	1	-5.7	-7	5988
O=C(Nc1nc(-c2ccc(F)cc2)cs1)c1cccnc1	-13	11	6	5	3.4	6	4179
O=S(=O)(NCCSc1ccccn1)c1ccc(Cl)cc1	-22	-10	.	.	.	.	2251
COc1ccc(CNC(=O)C2CCN(C(=O)c3csc(Nc4ccc(C)cc4)n3)CC2)cc1	-30	-5	-8	1	0.3	10	3188
CC(Nc1nc(-c2ccc(F)cc2)cs1)c1nc2cc(Cl)c(Cl)cc2n1CCCO (configuration not stated)	-5	3	13	11	-11	1	3450
CCOC(=O)CSc1nc2ccccc2c(=O)n1-c1ccc(C)cn1	5	-2	6	7	-2.2	5	5619
CCOC(=O)c1ccc(NC(=O)c2ccc(CO)c(C(=O)NC3CCN(C(=O)OCC)CC3)c2)cc1	-4	8	-3	15	6.3	-4	9363
Cc1ccc(CNC(=O)c2cc3c(C)nc4ccccc4c3o2)cc1	-52	2	5	9	0.0	-8	6162
CNS(=O)(=O)c1cc(N)ccc1C	-14	-3	-7	4	1.9	4	4476
C[C@]12CCC3C(CC[C@H]4C[C@@H](O)CC[C@]34C)C1C[C@@H](N)[C@@H]2O (some centres not stated)	-22	.	8	5	1.8	-1	3907
CN(C)S(=O)(=O)NC(=O)C1=C(N2CCCC2)COC1=O	-7	.	3	-6	11	6	2927
CCCN(CC(=O)Nc1ccccc1C)C(=O)CCCNC(=O)c1ccc(Cl)cc1	-22	.	10	9	-1.2	6	5159
O=S1(=O)CCOCC(CC2CCCCC2)N1Cc1cccc(Cl)c1 (configuration not stated)	.	.	11	3	11	14	.
O=C(NCCc1ccc(Cl)cc1)C1CCCN1C(=O)Nc1ccc(F)cc1 (configuration not stated)	-7	1	2	-1	0.8	0	3823
O=C(NCCC1=CCCCC1)C(=O)NCc1ccccc1Cl	-4	-8	8	9	8.9	13	16906*
CC(C)Oc1ccc(/C=N/NC(=O)c2nnn(-c3nonc3N)c2CN(C)C2CCCCC2)cc1	6	4	.	.	.	.	5997
Clc1ccccc1Cn1nc(-c2ccccc2)nc1-c1ccccc1	-11	6	-2	12	-3.7	58	2148
O=C(COc1ncnc2ccccc12)NC1CCCC1	-1	.	15	25	4.5	3	2999
COc1cc(/C=N/Nc2nncc3ccccc23)cc(OC)c1OC	-60	-17	.	.	.	.	3931
CC(C)(C)C(=O)NC1=NN(c2c(Cl)cc(Cl)cc2Cl)C(=O)C1	-28	1	1	6	4.7	0	3233
COc1ccc(NC(=O)C2CC(=O)N(C(C)C)C2)cc1 (configuration not stated)	-8	-2	11	11	4.5	6	2871
CCOc1ccccc1N1CCN(S(=O)(=O)c2ccc(Cl)s2)CC1	-16	-12	1	12	2.6	1	8352
CCCCOCC1CN(c2ccccc2)C(=O)CS1 (configuration not stated)	-12	0	8	7	2.7	4	4283
Clc1cccc(N/N=C(\Cc2nc3ccccc3[nH]2)c2ccccc2)c1	-1	-28	.	.	.	.	10327
COc1ccc(Cc2nc3ccc(C(=O)N(C)CC4COCCO4)cc3o2)cc1 (configuration not stated)	-20	1	1	-8	4.0	14	?
C[C@@]12C(=O)Nc3ccc(Cl)cc3C(=O)N1C1c3cc(Cl)ccc3OCC1C2c1ccccc1 (some centres not stated)	.	.	-6	-5	-5.8	-7	.
O=C(COc1ccc2ccccc2c1)NCC(=O)N/N=C/c1ccco1	-1	-1	.	.	.	.	15927
O=C(NCCNS(=O)(=O)c1cccc(C(F)(F)F)c1)c1cc(OCC(F)(F)F)ccc1OCC(F)(F)F	-5	-1	1	-1	4.6	-3	6739
CCn1c(CNc2ccc(Cl)cc2)nnc1SCCN1CCCCC1	-9	1	8	12	-11	-3	3277
CC(C)OCCCNC(=O)c1cn(C)c2ccc(S(=O)(=O)N(C)C3CCCCC3)cc2c1=O	-18	-4	6	8	1.3	2	4835
CCOC(=O)c1oc2cc(O)c(CC)cc2c(=O)c1-c1cscn1	-55	11	-5	-4	4.8	-1	2251
